Compound activity deposited in PubChem by National Center for Advancing Translational Sciences (NCATS).
TRPML1 blocker: inhibitors of human TRPML1 channel. Q9GZU1. TRPML1-inducible cells, Ca2+ dye fluorescence, FDSS; hits give low values; inhibition of EC80 agonist-evoked calcium signal. activity change, negative = inhibition, % (concentration not given with the values). 0.02% of 390,000 active. AID 624415; in the data active means activity change below about -50%; inconclusive means about -30% to -50%; inactive means above about -30%;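 further: stimulus is agonist 54-4 at its EC80 concentration; on the % scale 0 is the no-effect control and ±100 the full control effect; compound concentration not given in the record; the text of the record puts the active cut at -80%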
Target sequence (Q9GZU1 whole entry, looked up): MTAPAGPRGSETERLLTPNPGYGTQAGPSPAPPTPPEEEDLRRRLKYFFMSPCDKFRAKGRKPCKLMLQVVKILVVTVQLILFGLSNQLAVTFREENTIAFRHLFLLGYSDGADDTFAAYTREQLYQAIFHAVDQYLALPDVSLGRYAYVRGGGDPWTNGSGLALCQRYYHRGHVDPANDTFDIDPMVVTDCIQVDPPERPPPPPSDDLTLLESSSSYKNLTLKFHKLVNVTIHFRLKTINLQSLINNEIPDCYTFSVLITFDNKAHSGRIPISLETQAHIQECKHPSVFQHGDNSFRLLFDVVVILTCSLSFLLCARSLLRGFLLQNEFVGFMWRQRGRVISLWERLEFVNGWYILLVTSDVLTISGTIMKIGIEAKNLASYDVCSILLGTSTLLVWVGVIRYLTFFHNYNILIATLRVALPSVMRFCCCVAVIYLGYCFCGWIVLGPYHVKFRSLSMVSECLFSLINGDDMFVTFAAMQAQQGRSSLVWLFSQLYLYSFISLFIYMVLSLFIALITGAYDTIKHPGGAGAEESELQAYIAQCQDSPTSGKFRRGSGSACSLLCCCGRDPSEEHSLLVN
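TRPML1-DL cells, Tet-induced overnight (~16 h, 37 °C) at 1,500 cells/well, were loaded with Ca8 no-wash dye plus quencher for 45-90 min at room temperature. Compounds were pinned during FDSS kinetic reading; agonist 54-4 at EC80 (4 uM final) then added.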
CtBP-E1A blk: inhibitors of CtBP/E1A interaction | AlphaScreen GST-E1A/His-CtBP binding, 1536-well; hits give low values; control for the full effect not named in the record | activity change, % (concentration not given with the values) | 0.49% of 340,000 active | AID 651724; in the data active means activity change below about -65%; inconclusive means about -30% to -65%; inactive means above about -30%; further: on the % scale 0 is the no-effect control and ±100 the full control effect
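AlphaScreen with 125 nM GST-E1A and 125 nM His-CtBP (5X stocks) in Tris pH 8.0, 300 mM NaCl, BSA, Tween 20, TCEP. Compounds preincubated 2 h at 37 deg C, then glutathione donor/nickel acceptor beads added for 1 h at 37 deg C in dark.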
TRPV1 PAM: human TRPV1 potentiation; 0.02% of 320,000 active; potentiation, % at 8.33 µM; Q8NER1; TRPV1-expressing cells, Fluo-8 calcium influx, capsaicin EC20 potentiation; host cell line not named in the record; control for the full effect not named in the record; AID 540277; active means potentiation above 80%; inconclusive means 30% to 80%; inactive means below 30%; further: 0% is about no effect
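Fluo-8 calcium influx in TRPV1-expressing cells, kinetic read (ex 480/em 520 nm). Compound added and read 3 min for agonist activity, followed by capsaicin at EC20 final and 2 min further read for enhancement.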
D2 potentiator: potentiates the human D2 dopamine receptor allosterically; P14416; DiscoveRx D2 beta-arrestin cells, luminescence, 90 min; 100% = 57 uM dopamine signal; potentiation, % (concentration not given with the values); 0.23% of 360,000 active; active = potentiation of 50% or more; inconclusive = 30% to 50%; inactive = 30% or less;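 further: compound concentration not given in the record; tested on top of an EC20 dose of dopamine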
Target sequence (P14416 whole entry, looked up): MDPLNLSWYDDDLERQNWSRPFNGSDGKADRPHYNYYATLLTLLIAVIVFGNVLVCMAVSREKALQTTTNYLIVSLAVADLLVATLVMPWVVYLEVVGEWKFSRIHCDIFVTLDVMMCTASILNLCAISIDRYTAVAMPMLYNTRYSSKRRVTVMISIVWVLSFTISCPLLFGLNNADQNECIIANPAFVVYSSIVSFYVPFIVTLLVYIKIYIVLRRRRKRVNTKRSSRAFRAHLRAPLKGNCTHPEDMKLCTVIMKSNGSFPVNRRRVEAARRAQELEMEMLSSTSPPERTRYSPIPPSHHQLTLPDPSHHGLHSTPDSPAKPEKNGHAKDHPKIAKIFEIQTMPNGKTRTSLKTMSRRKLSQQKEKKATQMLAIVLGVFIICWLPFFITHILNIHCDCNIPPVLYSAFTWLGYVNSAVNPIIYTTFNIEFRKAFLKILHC
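D2 cells co-treated with compound plus 50 nM dopamine (EC20) for 90 min at 37 deg C to detect potentiation. Beta-arrestin recruitment was read as enzyme-fragment luminescence after 1 h at ambient temperature. Full response was set by 57 uM dopamine.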
TRPML1 ag: activates the human TRPML1 channel. Q9GZU1. 0.12% of 410,000 active. activation, % (no concentration beside the values). TRPML1-expressing cells, Ca2+ dye fluorescence, FDSS; host cell line not named in the record; reference of the full effect not given here; in the data active = activation above about 50%; inconclusive = about 30% to 50%; inactive = below about 30%; further: 0% is about no effect; the text of the record puts the active cut at 80%
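Kinetic FDSS Ca2+ read in Tet-induced TRPML1-DL cells (ABD Ca8 dye plus quencher, 45-90 min RT loading): baseline, then compound, then 110 s agonist window; EC80 agonist 54-4 at 4uM final added afterwards for a 110 s antagonist window.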
Six1-Eya2 blk: blocks human Six1 binding to Eya2; AlphaScreen GST-Six1/His-Eya2 binding, biochemical; hits give low values; control for the full effect not named in the record; 0.56% of 360,000 active; AID 651725; Q15475+O00167; activity change, % (no concentration beside the values); in the data active = activity change below about -65%; inconclusive = about -30% to -65%; inactive = above about -30%; further: on the % scale 0 is the no-effect control and ±100 the full control effect; compound concentration not given in the record
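Six1/Eya2 binding was read as AlphaScreen signal after compounds were pinned into GST-Six1 plus His-tagged Eya2 (5X stock 250/500 nM) in pH 8.0 Tris/NaCl/TCEP buffer, beads added, then incubated 1 h, 37 C, dark.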
The depositor's hits bear a star; ? = inconclusive; . = not tested or not shown.

compound	TRPML1 blocker	CtBP-E1A blk	TRPV1 PAM	D2 potentiator	TRPML1 ag	Six1-Eya2 blk
O=S1(=O)N=C(N(CCO)/N=C/c2ccc(Cl)cc2)c2ccccc21	11.7	.	-2.3	-4.1	0.4	?
NC(=O)NC(CC(=O)OCC(=O)Nc1nnc(-c2ccccc2)o1)c1ccc(Cl)cc1 (configuration not stated)	0.8	-25.6	.	-8.2	-0.2	-20.1
Cc1occc1C(=O)NN1C(=O)C2C3CCC(O3)C2C1=O (configuration not stated)	-14.6	-3.1	13.4	3.5	0.7	7.3
CCOc1ccc(OCC)c(NC(=O)CCSCCc2ccccn2)c1	-8.0	-16.2	-18.1	-5.5	0.0	1.2
CN(Cc1cccnc1)C(=O)c1ccc2nc(Cc3ccccc3F)oc2c1	9.5	1.5	-3.9	-9.2	-1.6	1.0
COc1ccc(S(=O)(=O)N2CCCCC2)cc1NC(=O)CCNC(=O)c1ccc(Br)cc1	3.3	7.8	-18.9	-15.3	-0.5	2.0
COc1ccccc1-c1noc(CSc2nc(N)cc(=O)[nH]2)n1	8.0	4.3	21.7	2.2	-0.7	4.8
O=C(O)c1nc(N2CCCC2)ncc1Cl	-6.5	2.0	-0.8	-0.4	1.7	5.2
O=C(O)c1nccnc1C(=O)NCc1csc2ccc(Cl)cc12	7.7	.	22.9	-15.8	-0.5	-1.0
Cc1ccc(C(=O)Nn2cnnc2)cc1[N+](=O)[O-]	11.0	2.9	.	-8.3	0.1	2.9
Cc1cc(N(CN2CCCC2=O)C(=O)c2ccc(F)cc2)no1	-2.5	-4.2	-6.5	-35.6	-0.5	4.3
CCn1c(SCC(=O)Nc2ccccc2C(=O)OC)nnc1-c1cccc(C)c1	-1.3	-7.2	15.5	-19.1	0.6	-8.4
Cc1ccc(/C=C2\Oc3cc(OC(=O)N4CCOCC4)ccc3C2=O)cc1	5.7	5.6	-5.2	-8.9	-0.4	5.9
O=C(COC(=O)c1cc(=O)[nH]c2ccccc12)NCCc1ccccc1	-1.9	0.6	.	-2.8	0.0	-0.7
COc1cc2[nH]c(=S)n(CCCN3CCOCC3)c(=O)c2cc1OC	-27.6	?	-1.8	-22.7	0.0	-13.4
CCN(C(=O)c1cc2ccccc2oc1=O)c1cccc(C)c1	-11.6	8.1	15.5	-7.8	0.3	2.1
COc1ccc(NC(=O)c2ccc(-c3ccc(OC)cc3)s2)cc1	12.3	8.9	-7.5	-7.8	-1.0	1.4
Cc1cccc(OCCNC(=S)NC(=O)c2cccnc2)c1	5.7	-5.0	-16.1	-5.4	0.3	7.6
COCCCNC(=O)c1cn(-c2cccc(OC)c2)c(=O)c2ccccc12	10.5	-4.1	-5.7	-3.6	0.5	-7.4
COc1cc(C(=O)N2CCN(S(=O)(=O)c3ccc(C)cc3C)CC2)ccc1OCC(=O)N1CCOCC1	-5.4	1.0	-9.0	2.7	-0.7	4.6

Copied from the listing (six entries):
compound	TRPML1 blocker	CtBP-E1A blk	TRPV1 PAM	D2 potentiator	TRPML1 ag	Six1-Eya2 blk
Cc1cc(N(CN2CCCC2=O)C(=O)c2ccc(F)cc2)no1	-2.5	-4.2	-6.5	-35.6	-0.5	4.3
CCn1c(SCC(=O)Nc2ccccc2C(=O)OC)nnc1-c1cccc(C)c1	-1.3	-7.2	15.5	-19.1	0.6	-8.4
Cc1ccc(/C=C2\Oc3cc(OC(=O)N4CCOCC4)ccc3C2=O)cc1	5.7	5.6	-5.2	-8.9	-0.4	5.9
O=C(COC(=O)c1cc(=O)[nH]c2ccccc12)NCCc1ccccc1	-1.9	0.6	.	-2.8	0.0	-0.7
COc1cc2[nH]c(=S)n(CCCN3CCOCC3)c(=O)c2cc1OC	-27.6	?	-1.8	-22.7	0.0	-13.4
CCN(C(=O)c1cc2ccccc2oc1=O)c1cccc(C)c1	-11.6	8.1	15.5	-7.8	0.3	2.1

Further structures:
compound	TRPML1 blocker	CtBP-E1A blk	TRPV1 PAM	D2 potentiator	TRPML1 ag	Six1-Eya2 blk
CC(C)CNC(=O)c1ccc2c(c1)C(=O)N(C1CCCCC1)C2=O	15.2	-0.7	-13.1	-6.9	0.1	8.0
COc1cc(/C=C2/N=C(C3CCCCC3)OC2=O)cc(OC)c1OC	2.8	5.5	-11.9	4.0	-1.1	1.3
O=[N+]([O-])c1ccc(NCc2ccccc2N2CCC(CO)CC2)nc1	20.6	.	-7.6	-9.9	1.1	-6.4
O=C(CS(=O)CC(=O)Nc1cccnc1)Nc1ccc(F)cc1 (configuration not stated)	18.0	17.4	-5.6	-3.3	-0.1	8.7
COc1ccc(Cn2cc(CN3CC(N4CCN(Cc5ccccc5F)CC4)CS3(=O)=O)nn2)cc1 (configuration not stated)	.	1.5	.	.	-1.1	-7.7
CCCCNc1c([N+](=O)[O-])cc(C(=O)O)cc1[N+](=O)[O-]	6.9	-13.9	1.4	5.2	1.0	5.7
COc1cccc(NC(=O)COC(=O)c2cc(S(=O)(=O)N3CCOCC3)ccc2C)c1	1.5	-4.1	3.0	-10.8	-0.5	-11.3
COc1ccc(C(=O)C[n+]2ccc3c(c2)nc(-c2ccccc2)n3C)cc1	-9.6	-12.0	3.1	-10.6	-0.5	2.5
COc1nc(NCC(C)C)nc(Oc2ccc(=O)n(-c3ccccc3)n2)n1	12.0	-0.3	.	1.8	0.2	1.0
CSC(=O)NC12CC3CC(CC(C)(C3)C1)C2	16.8	-3.3	-6.9	-5.9	3.0	8.2
COc1ccc(CCNC(=O)CCC(=O)NC2CCCC(C)C2C)cc1OC (configuration not stated)	6.0	-1.7	8.5	0.5	-0.2	0.5
CCOc1ccccc1CNc1ccc(N2CCOCC2)c(C(=O)O)c1	11.8	3.2	1.8	-3.5	1.1	3.1
CC1CCN(S(=O)(=O)c2ccc3c(ccn3CC(=O)O)c2)CC1	1.0	4.3	5.9	-4.2	0.1	0.5
CC1CCN(S(=O)(=O)c2ccc(C(=O)NNC(=O)C3CC3)cc2)CC1	10.5	-1.8	3.9	3.0	2.3	5.1
COC(=O)C(=Cc1ccc(-c2ccsc2C(=O)OC)o1)C(=O)OC	-1.5	1.6	-0.8	2.8	-0.2	-1.7
CC(=O)N1c2ccc(S(=O)(=O)N3CCC(C(=O)NCc4ccc(N(C)C)cc4)CC3)cc2CC1C (configuration not stated)	-16.7	0.4	0.2	-14.5	0.8	3.2
O=C(N/N=C1\CCCc2ccccc21)c1cccc(Br)c1	-2.4	.	-7.8	-6.9	0.9	-1.2
Cc1cccc2cc3c(nc12)SC(=NCC1CCCO1)N(Cc1ccco1)C3 (configuration not stated)	-9.8	-7.6	2.3	-35.1	10.2	-17.6
CSc1nnc(-c2ccncc2)n1CCCN1CCCC1=O	8.7	2.4	2.5	2.7	-0.3	-1.3
Cc1ccc(S(=O)(=O)Nc2c(C)n(C)n(-c3ccccc3)c2=O)cc1C(=O)OC(C)C(=O)c1ccccc1 (configuration not stated)	9.0	.	.	1.2	-0.6	-2.4
CCN(c1ccc(NC(=O)CCc2nc3sc4c(c3c(=O)[nH]2)CCCC4)cc1)C(C)C	-1.8	-7.4	-11.9	-8.1	0.4	-21.1
C=C1CCC2[C@](C)(CO[C@@H]3O[C@H](CO)[C@@H](O)[C@H](O)[C@H]3O)CCC[C@@]2(C)[C@@H]1CCC1=CCOC1=O (some centres not stated)	17.3	-0.3	0.9	-1.8	-0.5	4.9
c1ccc(C2=Nc3ccccc3OC2)cc1	-12.7	6.5	-2.9	?	-0.2	0.0
O=C(NCc1ccccc1F)Nc1nnc([C@H]2C[C@H](O)[C@@H](CO)O2)s1	.	28.5	.	-2.1	-0.7	18.9
COc1ccc(C(=O)Nc2cccc(C(=O)Nc3cc(C)ccn3)c2)cc1	-4.1	8.3	.	-4.2	0.4	-4.0
CCOc1ccc(NC(=O)c2ccc(NC(=O)c3cn4c5c(c(N6CCN(C)CC6)c(F)cc5c3=O)OCC4C)cc2)cc1 (configuration not stated)	-1.5	-4.6	-1.8	-3.7	-0.5	-6.7
COc1ccccc1OCCn1c(SCC(N)=O)nc2ccccc21	-5.7	-0.2	-9.2	-4.3	-0.4	12.3
CCCSCC(=O)Nc1ncc2c(n1)-c1ccccc1CC2	6.4	3.0	0.2	3.7	4.3	6.5
Cc1cccc(C)c1-n1nnnc1C1(C)CCC(=O)N1Cc1ccc(F)cc1 (configuration not stated)	.	-21.7	.	.	0.5	3.9
CCCC(=O)Nc1ccc2nc(SCC(=O)Nc3nccs3)sc2c1	16.0	-0.1	-7.7	-20.8	-0.3	4.0
O=C1C=C(NCc2ccc3c(c2)OCO3)CC(c2ccccc2)C1 (configuration not stated)	8.1	-14.0	-7.9	-14.6	1.8	6.0
O=C(NCC(O)c1ccc([N+](=O)[O-])cc1)C(c1ccccc1)c1ccccc1 (configuration not stated)	38.5	-8.1	2.1	-0.1	2.8	-8.4
COc1cccc(OC)c1C(=O)Nc1ccccc1C(=O)N1CCCCCC1	-6.8	1.6	4.8	-8.6	-0.1	-1.0
O=C(Nc1ccc(Cl)cc1)C1Cc2c(-c3cccc(F)c3)ccnc2O1 (configuration not stated)	-1.9	-2.5	.	-10.0	0.5	-7.1
Cc1ccccc1NC(=O)Cc1nnc(SCc2ccc(Cl)c(Cl)c2)n1C	-0.3	-9.4	9.3	5.8	0.4	-16.3
Cc1nn(-c2cc(C(F)(F)F)ccc2Cl)c2nc(C(F)(F)F)[nH]c(=O)c12	32.1	11.4	-9.7	0.8	2.0	12.9
COc1cc(NS(=O)(=O)c2ccc(NC(=O)C3CCCO3)cc2)nc(OC)n1 (configuration not stated)	-10.8	3.4	-1.0	-2.5	2.2	3.5
CCN(/N=C/c1ccc(Cl)cc1)c1cc(=O)n(C)c(=O)[nH]1	-11.1	-8.7	-6.7	9.1	0.2	-8.7
O=C(N/N=C/c1ccc2c(c1)OCO2)c1ccc(Cn2cc([N+](=O)[O-])cn2)o1	9.4	-13.6	-11.2	-5.3	-0.2	-19.5
[O-]/C(=C(\C(=S)Nc1ccc(SC(F)F)cc1)[n+]1ccccc1)c1cc(Cl)ccc1Cl	22.8	-3.5	-2.5	9.1	0.6	-22.8
Cc1cc(C)cc(OC(C)c2ccnc3nc(/N=C/N(C)C)nn23)c1 (configuration not stated)	5.5	-0.6	-7.6	-9.7	0.1	-1.0
Brc1cccc(-c2nnc3sc(CN4CCCCC4)cn23)c1	54.2	-1.5	-9.1	-11.4	0.4	3.4
COc1cc(S(=O)(=O)NCc2ccccn2)ccc1Cl	-1.4	8.8	-5.6	-5.7	0.4	3.1
COc1cc(/C=N/N2CCN(c3ccccc3)CC2)ccc1OC(C)=O	8.9	-20.8	5.6	-1.3	0.2	-23.6
